Mtb betalactam – beta-lactam sensitization of Mtb H37Rv; actives 0.27% (n = 330,000); inhibition, % at 25 µM; M. tuberculosis H37Rv growth with meropenem, percent inhibition; hits of this screen are not shown here;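 active means about 74% or more and at least 40 points above the plate without the antibiotic, then above 30% in a dose series; inconclusive means first-round hits that could not be retested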;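 further: growth measured after seven days incubation then overnight dye step; 0% = bacteria only wells and 100% = bacteria with antibiotic; twin plates without the antibiotic show which effects depend on it; some results filed as inactive read as strong as hits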
Mtb H37Rv – M. tuberculosis H37Rv growth inhibitors, H37Rv strain (AID 1626) | M. tuberculosis H37Rv growth inhibition; higher % means a stronger effect | inhibition, % at 10 µM; hits with a dose series show IC50 in µM | actives 0.95% (n = 220,000);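 active means confirmed in a dose series; inconclusive means inhibition above 80% but not taken into the dose series; inactive means below 80% or under 30% at every dose of the series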;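 further: bacteria incubated seven days before Alamar blue readout; 0% = bacteria only wells and 100% = bacteria with antibiotic wells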
Arbovirus inh – arbovirus infection inhibition; arbovirus infection cell-based antiviral screen; inhibition, % at 10 µM; actives 0.37% (n = 200,000); AID 1251;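 active means inhibition from about 30%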;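 further: bluetongue infection of BSR cells; cell survival read as ATP light after 72 h; 0% = infected wells without compound and 100% = uninfected wells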
YopH inh – inhibitors of Yersinia enterocolitica YopH tyrosine phosphatase | fluorescence Ex485/Em525 | inhibition, %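 (about 10 µM by stock and volumes)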 | actives 0.16% (n = 140,000) | AID 898;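 active means inhibition of 50% or more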;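 further: controls were vehicle for no effect and minimum signal wells for full effect; inactives centre near -20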
RecA intein inh – blocks M. tuberculosis RecA intein splicing; P9WHJ3; cell-free RecA intein splicing, fluorescence; inhibition, %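 (about 9 µM by stock and volumes)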; actives 0.75% (n = 290,000); AID 2221; in the data active means inhibition above about 30%; inconclusive means no clear call, values can overlap the other calls;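 further: 0% = vehicle wells and 100% = reference inhibitor control wells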
Target sequence (P9WHJ3 whole entry, looked up): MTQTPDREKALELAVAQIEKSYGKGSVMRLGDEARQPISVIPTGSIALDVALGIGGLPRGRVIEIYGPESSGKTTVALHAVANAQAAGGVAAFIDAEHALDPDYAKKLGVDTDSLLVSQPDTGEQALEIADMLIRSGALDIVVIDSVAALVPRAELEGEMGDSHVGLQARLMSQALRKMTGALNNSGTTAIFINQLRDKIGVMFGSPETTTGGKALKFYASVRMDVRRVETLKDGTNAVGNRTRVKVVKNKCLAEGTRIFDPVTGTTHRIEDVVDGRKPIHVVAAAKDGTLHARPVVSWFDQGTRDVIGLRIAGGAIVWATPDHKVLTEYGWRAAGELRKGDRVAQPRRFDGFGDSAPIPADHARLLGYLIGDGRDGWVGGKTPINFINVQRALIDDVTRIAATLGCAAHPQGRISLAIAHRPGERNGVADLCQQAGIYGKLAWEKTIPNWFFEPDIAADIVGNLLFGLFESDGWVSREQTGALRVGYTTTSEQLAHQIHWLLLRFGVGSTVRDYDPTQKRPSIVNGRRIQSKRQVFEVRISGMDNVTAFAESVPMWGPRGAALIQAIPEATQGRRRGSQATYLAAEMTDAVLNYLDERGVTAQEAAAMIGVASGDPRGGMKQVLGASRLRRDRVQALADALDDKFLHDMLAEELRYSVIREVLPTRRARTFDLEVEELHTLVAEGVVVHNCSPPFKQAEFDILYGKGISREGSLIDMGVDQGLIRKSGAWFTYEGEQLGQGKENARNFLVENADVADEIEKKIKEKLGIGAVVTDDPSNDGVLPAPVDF
Arbovirus inh repeat – second read-out of Arbovirus inh, no call of its own (marks repeat the call); inhibition, %; measured here: 10K subset replicate screen; many hits read low in the repeat;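 first of two repeat runs on a subset; 0% = infected and 100% = uninfected wells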
* hit, by the source's call; ? = inconclusive; · = not tested or not shown. An excerpt; the hit share may differ from the screen's.

SMILES	Mtb betalactam	Mtb H37Rv	Arbovirus inh	YopH inh	RecA intein inh	others
C/C(CCC(=O)OC[C@H]1O[C@H](C#Cc2ccccc2)C=C[C@@H]1Oc1ccc(C)cc1)=N\O[C@@H](C)CN1CCCCc2nc(C)c(C)cc21	·	·	7	-17	·
O=C(O)CCCC(=O)N1N=C(c2ccccc2)CC1c1ccc2c(c1)OCO2 (centres undefined)	-9	·	·	·	-1.6
Cc1cc(O)cc(O)c1C(=O)Cc1cscn1	0	-1%	5	-40	-4.7
Cc1ccc(S(=O)(=O)NN2C(=O)/C(=C/c3ccc(C(=O)O)cc3)SC2=S)cc1	-4	·	·	·	1.8
O=c1[nH]c(C2CCN(S(=O)(=O)c3ccccc3)CC2)nc2c1nnn2Cc1ccc2c(c1)OCCO2	65	·	·	·	-0.7
O=c1c2ccccc2nc(-c2ccc([N+](=O)[O-])cc2)n1O	67	44%	6	·	-1.1
COc1cc(C(=O)NCc2nnc(SCC(=O)Nc3cc(C)cc(C)c3)o2)cc(OC)c1OC	-4	-6%	4	-30	-0.1
CCN(CC)C(=O)CSc1nc2ccc(NC(=O)CSc3nccn3C)cc2s1	2	-3%	2	18	6.7
Cc1ccc(N2C(=O)C3C4C=CC(C4)C3C2=O)cc1C (centres undefined)	3	-6%	9	-31	0.7
O=c1c2ccccc2c(C=Nc2ccc(S(=O)(=O)N3CCCCC3)cc2)c(O)n1-c1ccc(Cl)cn1	8	4%	-2	-13	-4.6
CC(=O)c1ccc(N2CCN(C(=O)C3CCC3)CC2)cc1	11	-2%	0	-19	-1.7
Oc1ccc2n[nH]nc2c1	-39	2%	-1	-7	-3.8
CCN(CC)C(=O)Oc1ccc2c(=O)c(-c3ccccc3)coc2c1	93	8%	1	7	0.4
CCCc1nnc(NC(=O)OCC)s1	2	4%	0	·	0.5
CCC1(CC)C(=O)N=C2c3ccccc3C(=O)N21	-12	-2%	2	9	0.1
Cc1ncsc1CCOC(=O)c1cccnc1	0	-7%	1	-39	-2.5
COc1cc(N2C(=O)C=CC2=O)c(OC)cc1Cl	21	-13%	·	·	-0.5
O=C(N/N=C/c1ccc2c(c1)OCO2)c1ccc2ccccc2n1	60	28%	-27	·	-0.1
CCOC(=O)Cn1nc(/C=C/c2ccccc2)ccc1=O	-11	6%	9	-41	3.5
COc1cccc(NC(=O)N(CCCN2CCOCC2)C(C)c2cc3ccccc3o2)c1 (centres undefined)	-8	-2%	-3	-12	1.3
CCN1C(=O)C2C(c3cccc(F)c3)NC(CC)(C(=O)OC)C2C1=O (centres undefined)	-6	-15%	3	-23	·
COc1ncnc2c1NC1=C(S2)C(=NCCC(=O)O)CC(C)(C)C1	-6	-9%	1	-28	-3.9
COc1ccc(NC(=O)NCc2ccco2)cc1OC	-2	4%	10	·	-0.5
CC(C)CCNC(=O)C1CCN(S(=O)(=O)c2ccc3c(c2)CC(C)N3C(=O)C2CC2)CC1 (centres undefined)	-12	·	·	·	0.7
C=CCSc1nc(-c2ccc(OC)cc2)c(C#N)c(=O)n1CC=C	·	15%	9	·	17
Cc1ccc(C)c(N2CCN(C(=O)C3CCCN(S(=O)(=O)c4c(C)[nH]c(=O)[nH]c4=O)C3)CC2)c1 (centres undefined)	-3	4%	9	-12	-1.8
COc1ccc(N(CC(=O)N/N=C/c2cccc(OC)c2OC)S(=O)(=O)c2ccccc2)cc1	?	·	·	·	-0.6
COC(=O)CSc1nc2ccc(NC(=O)c3ccccc3C(=O)N3CCOCC3)cc2s1	99	8.9µM*	-5	-19	-6.7
Cc1ccccc1CN1N=C(/C=C/c2ccccc2)CCC1=O	51	5%	-13	·	8.6
CCC(=O)NC(=S)Nc1ccccc1F	-3	5%	-4	-21	-5.8
COc1ccc(NS(=O)(=O)c2cc(NC(=O)c3nc4nc(C)cc(C)n4n3)ccc2C)cc1	-4	-5%	-8	·	-0.1
N#CC1=C(N)N=C(SCc2ccccc2)C(C(N)=O)C12CCCCC2 (centres undefined)	-6	-2%	13	-20	-2.6
c1ccc(CNc2ccc3c(c2)ncn3C2CCCCC2)nc1	7	-5%	7	12	1.7
CSc1nc2ccc(NC(=O)C3=NNC(=O)CC3)cc2s1	76	?	-6	·	-1.3
CCCn1c(SCC(=O)Nc2nonc2C)nnc1-c1ccoc1C	-2	3%	12	-13	·
O=C(c1ccc(Cl)cc1)C1CCCN(Cc2ccc3ncccc3c2)C1 (centres undefined)	5	4%	-5	·	2.5
COc1ccc(C2/C=C\CN(S(=O)(=O)c3ccc(C)cc3)CC(=O)N2Cc2ccc(F)cc2)cc1 (centres undefined)	0	2%	·	·	4.1
O=C(Cc1cccc2ccccc12)N/N=C1\CCCc2ccccc21	0	0%	4	-12	2.3
CCCCOc1ccc(C(=O)NCc2ccco2)cc1	0	-3%	2	-13	1.2
COc1ccc(OC)c(C2C(C(=O)c3sc(C)nc3C)=C(O)C(=O)N2CCN2CCOCC2)c1 (centres undefined)	0	-4%	5	-38	2.2
CC(C)(C)NC(=O)NC(=O)COC(=O)Cn1c(C(F)(F)F)nc2ccccc21	-1	-1%	2	-47	0.3
O=C(c1ccsc1)N1CCCC(N2CCN(c3cccc(Cl)c3)CC2)C1 (centres undefined)	2	·	·	·	-2.6
Cc1cc(OCC(=O)Nc2ccc(CN3CCOCC3)cc2)c2c(C)cc(=O)oc2c1	8	·	·	·	0.1
CCCc1cc(C(=O)NNC(=S)NCC)c2ccccc2n1	2	11%	7	-1	1.5
c1ccc(CSc2nnc(-c3cccs3)n2Cc2ccco2)cc1	3	1%	-5	5	10
CCN(CC)CCOC(=O)/C=C/c1ccccc1OC	-6	-3%	-1	-32	-5.1
Cc1cc(Br)cc2c1NC(=O)C2(c1c(C)n(C)n(-c2ccccc2)c1=O)c1c(C)n(C)n(-c2ccccc2)c1=O	-6	-2%	8	-24	2.6
COC(=O)c1cc(S(=O)(=O)N2CCN(c3ccc(C(C)=O)cc3)CC2)c[nH]1	3	·	·	·	-3.3
NC(=S)Nc1ccc2cc[nH]c2c1	10	-5%	-3	·	1.4
CCC(C)c1ccc(NC(=O)COc2c(F)c(F)c(C(F)(F)F)c(F)c2F)cc1 (centres undefined)	92	57%	-19	-18	5.8

Following part
SMILES	Mtb betalactam	Mtb H37Rv	Arbovirus inh	YopH inh	RecA intein inh	others
COCCNC(=O)c1c[nH]c2cc(OC)c(OC)cc2c1=O	-9	-5%	12	17	1.1
O=C1NC(c2cccs2)C(C(=O)c2ccccc2)C(O)(C(F)(F)F)N1 (centres undefined)	-1	-4%	0	-27	1.3	Arbovirus inh repeat=4
Cc1c(O)ccc2c(CN3CCOCC3)cc(=O)oc12	-5	·	·	·	-229
O=C(NC1CCCC1)C(c1ccc(F)cc1)N(Cc1ccc(F)cc1)C(=O)CCl (centres undefined)	-1	2%	1	-10	56*
CC(=O)N(Cc1ccc(Br)cc1)c1ccccc1C(=O)O	-7	-9%	·	·	-0.1
CC1(C)S/C(=N/N=C/c2ccco2)NC1=O	11	3%	5	-32	-0.1
O=C(NCc1ccco1)C(c1ccncc1)N(C(=O)Cn1nnc2ccccc21)c1ccccc1F (centres undefined)	-9	·	·	·	-3.1
COC(=O)CN1C(=S)N(c2ccc(OC)cc2)C(=O)/C1=C/c1cccs1	-1	4%	-9	-12	2.7
CN1CCN(CCCNc2c(C=O)c(=O)[nH]c3ccccc23)CC1	-8	·	·	·	-0.7
O=S1(=O)CCS(=O)(=O)C1c1ccccc1	1	·	·	·	3.9
CCOC(=O)CCCCNC(=O)Nc1ccccc1	4	6%	7	·	0.0
COC(=O)C1=NN(c2ccc(Cl)cc2)C2C(=O)N(c3ccccc3OC)C(=O)C12 (centres undefined)	6	7%	-2	-16	-252
CC(C)(C)c1ccc(S(=O)(=O)NNC(=O)C2CCN(Cc3cccc(F)c3)CC2)cc1	-6	7%	-8	·	-1.7
COC(=O)c1cc(-c2ccc(Cl)cc2)n(-c2ccc(S(N)(=O)=O)cc2)n1	13	7%	-13	·	-1.8
O=C(CCC(=O)N(CC(=O)NC1CCCCC1)Cc1ccccc1)Nc1ccccn1	1	3%	2	·	2.0
CCOC(=O)CC1(NC(=O)c2cc(COc3c(F)cccc3F)on2)CCCCC1	-6	·	·	·	7.9
CCOc1ccc(NS(=O)(=O)c2ccc(NC(=S)NC(=O)C(C)C)cc2)cc1	2	5%	-6	-12	-5.0
O=C(CSc1ccc(-c2cccnc2)nn1)Nc1ccccc1C(F)(F)F	-6	·	·	·	-9.8
CC1(C)CC(NC(=O)c2cc([N+](=O)[O-])cc([N+](=O)[O-])c2)CC(C)(C)N1	1	·	·	·	-0.9
CCc1noc(C)c1C(=O)NNC(=O)c1cc(OC)c(OC)c(OC)c1	-7	·	·	·	1.4
COc1ccc(Cc2nc3ccc(C(=O)NCCCSC)cc3o2)cc1OC	99	·	·	·	-2.1
COc1ccc(C(=O)NCC(=O)OCC(=O)Nc2cc(OC)ccc2OC)cc1	-15	-12%	0	-10	3.7
C=CCn1c(O)c(C(CC)=Nc2ccccc2NC(C)=O)c(=O)[nH]c1=O	3	-8%	-1	-26	1.5
CC1CC1C(=O)OCC(=O)NCc1ccc(Cl)cc1 (centres undefined)	14	-3%	11	-15	-9.9
CCOC(=O)C(C)c1n[nH]c(=O)c2ccccc12 (centres undefined)	5	-5%	-2	-11	-0.2
CC(C)n1nc(C(=O)NNC(=O)c2ccncc2)c2ccccc2c1=O	-7	·	·	·	-0.1
COc1ccc(-n2nc(C(=O)NCC(=O)NCc3ccc(F)cc3)c3ccccc3c2=O)c(OC)c1	·	-1%	9	-26	·
Cc1ccc(/C=C2/SC(=O)N(CC(=O)N3CCOCC3)C2=O)s1	-1	-9%	-3	-23	0.4
O=C(Nc1ccc2c(c1)OCO2)c1cncc(Br)c1	67	-3%	-3	0	0.4
COc1ccc(S(=O)(=O)NCC(=O)N(CC2CCCO2)C(C(=O)NC2CCCC2)C(C)C)cc1 (centres undefined)	8	·	·	·	0.2

Ordered by heavy-atom count (lowest first): some entries from above
SMILES	Mtb betalactam	Mtb H37Rv	Arbovirus inh	YopH inh	RecA intein inh	others
CC1CC1C(=O)OCC(=O)NCc1ccc(Cl)cc1 (centres undefined)	14	-3%	11	-15	-9.9
Cc1ccc(/C=C2/SC(=O)N(CC(=O)N3CCOCC3)C2=O)s1	-1	-9%	-3	-23	0.4
C=CCn1c(O)c(C(CC)=Nc2ccccc2NC(C)=O)c(=O)[nH]c1=O	3	-8%	-1	-26	1.5
COc1ccc(Cc2nc3ccc(C(=O)NCCCSC)cc3o2)cc1OC	99	·	·	·	-2.1
COc1ccc(S(=O)(=O)NCC(=O)N(CC2CCCO2)C(C(=O)NC2CCCC2)C(C)C)cc1 (centres undefined)	8	·	·	·	0.2
COc1ccc(-n2nc(C(=O)NCC(=O)NCc3ccc(F)cc3)c3ccccc3c2=O)c(OC)c1	·	-1%	9	-26	·

The main list resumes, repeating the 3 entries before the break.
SMILES	Mtb betalactam	Mtb H37Rv	Arbovirus inh	YopH inh	RecA intein inh	others
Cc1ccc(/C=C2/SC(=O)N(CC(=O)N3CCOCC3)C2=O)s1	-1	-9%	-3	-23	0.4
O=C(Nc1ccc2c(c1)OCO2)c1cncc(Br)c1	67	-3%	-3	0	0.4
COc1ccc(S(=O)(=O)NCC(=O)N(CC2CCCO2)C(C(=O)NC2CCCC2)C(C)C)cc1 (centres undefined)	8	·	·	·	0.2
CC1CCN(S(=O)(=O)c2ccc(NC(=O)Cn3nnc(-c4ccccc4F)n3)cc2)CC1	-7	1%	-14	-15	-1.8
CCn1nc(NC(=O)CC(C)C)c2cc3cccc(C)c3nc21	?	·	·	·	-44
Cc1ccccc1CCN(CC(=O)NC1CCCCC1)C(=O)c1csnn1	5	7%	7	·	0.9
CCC(=O)Nc1nc(OC)cc(OC)n1	-7	-10%	1	17	-2.6
COCc1ccc(CN2CCCC(C(=O)Nc3ccc(-c4cscn4)cc3)C2)o1 (centres undefined)	3	·	·	·	0.6
COc1cccc(NC(=S)N2CCN(c3ccc([N+](=O)[O-])cc3)CC2)c1	3	-1%	2	·	-2.1
COc1ccc(CCNC(=O)CSc2ccc(NC(C)=O)cc2)cc1OC	4	·	·	·	-4.7
CCN(CC)c1ccc(C(=O)NN)cc1	-5	-1%	0	·	-0.3
CCn1c(CNc2ccc(C)cc2)nnc1SCC(=O)NCc1ccccc1	-10	-2%	1	-23	-2.2
COC(=O)C(O)(CC(=O)c1ccc(OC)cc1)C(F)(F)F (centres undefined)	-7	-2%	10	-29	-2.2
CCn1c(=S)sc2c(=O)n(-c3ccccc3)c(=S)[nH]c21	9	-2%	4	·	0.6
O=C(CN1C(=O)NC2(CCCc3ccccc32)C1=O)N1CCc2ccccc2C1 (centres undefined)	-4	-6%	2	-42	4.1
CCOc1ccccc1CNC(=O)Cn1ccc2cc(S(=O)(=O)N3CCCCCC3)ccc21	-4	·	·	·	0.8
